# Compound activity deposited in PubChem BioAssay by The Scripps Research Institute Molecular Screening Center.
# OX1R antag-1: human HCRTR1 antagonism | O43613 | CHO/OX1R cells, Fluo-8 calcium fluorescence, orexin A | inhibition, % at 5 µM | hit rate 0.43% among 330,000 | AID 434989;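 active = inhibition above its plate's threshold, mean inhibition of all tested compounds on the plate plus 3 SD, cut at about 37% in these data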;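 note: 0% = orexin A challenge wells and 100% = SB-334867-A antagonist wells; not every result past the cut was called active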
# Target sequence (O43613 whole entry, looked up): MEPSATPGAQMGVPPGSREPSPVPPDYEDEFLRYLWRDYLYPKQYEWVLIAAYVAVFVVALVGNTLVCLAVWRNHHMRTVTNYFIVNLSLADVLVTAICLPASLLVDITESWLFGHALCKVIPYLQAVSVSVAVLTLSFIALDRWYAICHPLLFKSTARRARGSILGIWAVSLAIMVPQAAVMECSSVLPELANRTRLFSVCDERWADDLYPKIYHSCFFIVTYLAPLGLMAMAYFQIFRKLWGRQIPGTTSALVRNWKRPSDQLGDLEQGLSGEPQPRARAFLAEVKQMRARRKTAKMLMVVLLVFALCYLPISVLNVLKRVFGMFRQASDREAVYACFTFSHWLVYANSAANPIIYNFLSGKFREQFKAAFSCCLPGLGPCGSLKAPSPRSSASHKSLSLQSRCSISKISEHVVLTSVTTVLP
# OX1R antag-2: OX1R (human) antagonism. OX1R-expressing cells, FRET antagonist read-out. inhibition, % at 6.6 µM. hit rate 1.8% among 330,000. AID 485270; in the data active = inhibition mostly above about 38%, no sharp cut-off; inactive = mostly below about 40%;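 note: 0% = agonist challenge alone and 100% = reference antagonist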
# An asterisk follows results filed as active.
structure	OX1R antag-1	OX1R antag-2
Cc1ccc(NC(=O)c2c(C)nn(-c3ccccc3)c2Cl)cc1	-20.0	13.9
CC(NC(=O)CCC(=O)N1CCN(S(=O)(=O)c2ccc(Cl)cc2)CC1)c1ccccc1 (stereo not given)	-19.1	4.1
O=C(NN=C1CCCC1)c1n[nH]c2c1CCCC2	-14.0	-0.7
N#Cc1ccc(CSc2nnc(-c3ccccn3)n2-c2ccc(Cl)cc2)cc1	-19.0	5.2
CCOc1ccccc1OCCOCCOc1ccccc1[N+](=O)[O-]	-10.3	16.6
CCn1c(CN2CCN(C(c3ccccc3)c3ccccc3)CC2)nc2c1c(=O)n(C)c(=O)n2C	-38.0	5.3
Cn1c(SCC(=O)NCC2CCCO2)ncc(C(=O)Nc2ccc(F)cc2)c1=O (stereo not given)	-10.3	4.1
CCn1c(CNC(=O)c2ccco2)nnc1SCCOc1ccccc1	-13.9	4.3
Cn1nccc1NC(=O)CC1(CC(=O)O)CCCCC1	-3.0	4.2
COc1ccccc1-c1nnc(SCC(=O)Nc2ccc(S(N)(=O)=O)cc2)n1C	-3.6	12.5

# Pulled by structure from the list above:
structure	OX1R antag-1	OX1R antag-2
Cn1c(SCC(=O)NCC2CCCO2)ncc(C(=O)Nc2ccc(F)cc2)c1=O (stereo not given)	-10.3	4.1
O=C(NN=C1CCCC1)c1n[nH]c2c1CCCC2	-14.0	-0.7

# (list continues)
structure	OX1R antag-1	OX1R antag-2
COc1ccc(S(=O)(=O)N2CCC(C(=O)N[C@@H](C)C(=O)NC3CC3)CC2)cc1	0.8	-5.4
O=S(=O)(c1cc(Br)c(Cl)s1)N1CCCC1	-9.2	5.0
CN(C(=O)COC(=O)c1cc(-c2ccccc2Cl)nc2ccccc12)C1CCS(=O)(=O)C1 (stereo not given)	-4.5	14.0
CC(C)n1c(NCc2cc(Cl)ccc2O)nc2ccccc21	-28.2	3.3
CCOC(=O)CC1CCCCN1C(=O)c1ccc2nc(CCOC)oc2c1 (stereo not given)	-4.5	6.5
O=C(Nc1nnc(SCC(=O)N2CCCCC2)s1)c1ccc(F)cc1F	-15.0	19.9
CCOC(=O)N1CCC(N2CC34C=CC(O3)C(C(=O)Nc3ccc(C)cc3)C4C2=O)CC1 (stereo not given)	-14.9	16.4
CCOC(=O)CC1(C)OCC(C[N+]2(C)CCCCC2)O1 (stereo not given)	-15.7	12.8
O=C(NCc1cccc(Br)c1)C1CC(c2cc(C(F)(F)F)cc(C(F)(F)F)c2)=NO1 (stereo not given)	-8.5	5.5
Cc1onc(-c2ccccc2)c1C(=O)Nc1nnc(COc2ccc(Cl)cc2)s1	-18.9	24.4

# The results go on:
structure	OX1R antag-1	OX1R antag-2
Cc1ccc(S(=O)(=O)Nc2ccc3[nH]c(=O)[nH]c3c2)c(C)c1	-5.1	19.0
CCCCc1c(O)nc(SCC(=O)O)[nH]c1=O	-4.3	11.3
Cc1cnc(C(=O)OCC(=O)Nc2cccc(S(=O)(=O)N3CCCCC3)c2)cn1	-17.6	0.1
COc1ccc(-c2cc(-c3nnc(COC(=O)CC4CC5CCC4C5)o3)c3ccccc3n2)cc1OC (stereo not given)	-28.2	16.8
CCOC(=O)CSc1nnc(Cc2ccccc2)n1CC1CCCO1 (stereo not given)	3.7	9.3
Cc1ccc(NC2=NCC(Cc3ccc(Br)cc3)S2)cc1 (stereo not given)	-39.6	7.8
COc1ccccc1CNC(=O)CCN1C(=O)COc2ccccc21	1.7	12.5
CN1CCN(C(=O)c2ccc3c(=O)n(Cc4ccc(Cl)cc4)c(=S)[nH]c3c2)CC1	8.0	5.0
CC(C)(C)c1ccc(C(=O)c2c[nH]c(C(=O)NCCCn3ccnc3)c2)cc1	-12.1	4.3
CCOC(=O)c1cnc(SCC(=O)Nc2cc(C(F)(F)F)ccc2N2CCOCC2)nc1N	-15.9	20.6

# Compounds shown so far that have two or more sulfur atoms:
structure	OX1R antag-1	OX1R antag-2
COc1ccccc1-c1nnc(SCC(=O)Nc2ccc(S(N)(=O)=O)cc2)n1C	-3.6	12.5
O=S(=O)(c1cc(Br)c(Cl)s1)N1CCCC1	-9.2	5.0
O=C(Nc1nnc(SCC(=O)N2CCCCC2)s1)c1ccc(F)cc1F	-15.0	19.9

# Additional records:
structure	OX1R antag-1	OX1R antag-2
CC(Sc1nc2ccccc2c(=O)n1CC1CCCO1)C(=O)N(C)Cc1ccccc1 (stereo not given)	-26.7	44.5
CCOc1ccc(C(CC(=O)O)NC(=O)COc2ccccc2OC)cc1OC (stereo not given)	-14.9	8.8
O=C(NCCOC(=O)c1ccc(S(=O)(=O)N2CCOCC2)cc1)c1cccnc1	0.3	5.5
Cc1ccc(S(=O)(=O)/N=C2\C=C(Nc3cccc(C(=O)O)c3)C(=O)c3ccccc32)c(C)c1	-12.2	46.0
COc1ccc(OCCCC(=O)Nc2cccc([N+](=O)[O-])c2C)cc1	-12.5	10.4
CS(=O)(=O)N1CCN(C(=O)NC23CC4CC(CC(C4)C2)C3)CC1	-1.8	15.8
CCOc1ccc(C(=O)COC(=O)CC)cc1	-16.5	6.6
CCc1cc2cc(C)c(C)cc2nc1SCC(=O)Nc1cc(C)on1	-11.1	1.7
CN(CC(=O)Nc1ccc(Cl)c(C(F)(F)F)c1)C(=O)C1CSC2(C)CCC(=O)N12 (stereo not given)	-7.8	15.4
Cc1ccc(N(C(=O)c2snc(C(N)=O)c2N)C(C(=O)NCc2ccccc2)c2ccncc2)c(C)c1 (stereo not given)	-37.6	15.3

# Single records (already shown):
# Record of O=C(NCCOC(=O)c1ccc(S(=O)(=O)N2CCOCC2)cc1)c1cccnc1 : OX1R antag-1 = 0.3; OX1R antag-2 = 5.5
# Record of CCOc1ccc(C(=O)COC(=O)CC)cc1 : OX1R antag-1 = -16.5; OX1R antag-2 = 6.6
# Record of CS(=O)(=O)N1CCN(C(=O)NC23CC4CC(CC(C4)C2)C3)CC1 : OX1R antag-1 = -1.8; OX1R antag-2 = 15.8

# Following part:
structure	OX1R antag-1	OX1R antag-2
Cn1nnc2cc(C(=O)NC3CCCCC3)ccc21	0.7	14.0
CC(C(=O)N1CCc2ccccc21)N1CCN(Cc2ccc(Cl)cc2)CC1 (stereo not given)	-4.2	9.7
CCCNC(=O)CSc1nc(-c2cccs2)cc(C(F)(F)F)n1	-12.1	34.9
CNC(=S)N(Cc1ccc(OC)cc1)Cc1cc2cc(C)ccc2[nH]c1=O	-16.5	3.5
CC(C)CN(CC(C)C)C(=O)c1cc2c(=O)n3ccccc3nc2s1	-41.7	21.0
COc1ccc(Nc2nnc(SC(C(=O)Nc3cc(C)ccc3C)c3ccccc3)s2)cc1 (stereo not given)	-33.1	10.2
O=[N+]([O-])c1ccc2oc(-c3ccccc3)nc2c1	-14.1	0.9
CCOc1ccc(NC(=O)Nc2cccc(C(=O)O)c2)cc1	4.8	3.5
COc1ccc(C(=O)Nc2cccnc2)cc1	-17.8	2.8
COc1ccccc1Nc1nnc(SCC(=O)N2CC(=O)Nc3ccccc32)s1	-13.7	2.7

# Later entries:
structure	OX1R antag-1	OX1R antag-2
Cc1cc(Br)c(S(=O)(=O)NCc2ccncc2)cc1C	-4.1	19.6
COC(=O)CCC/C=C1/SCC(NC(=O)c2ccccc2)C1=O (stereo not given)	-12.3	1.2
CCOC(=O)C(=CNc1cccnc1Oc1ccc(C)c2c1CCC2)C(=O)OCC	-29.8	4.9
COc1cc2c(cc1OC)C(c1cc(Br)ccc1F)N(C(=O)CCl)CC2 (stereo not given)	7.8	8.7
COCCCNC(=O)c1ccc(NS(C)(=O)=O)cc1	-1.0	-4.0
CCC1(c2ccccc2)NC(=S)N(c2cccc(C)c2C)N1 (stereo not given)	5.8	14.0
CCN(C(=O)CN1CCN(S(=O)(=O)c2ccccc2C(F)(F)F)CC1)c1c(N)n(Cc2ccccc2)c(=O)[nH]c1=O	-8.3	10.7
Cc1ccc(CNC(=O)Nc2ccc(OC(F)(F)F)cc2)n1C	-14.7	-6.7
O=C(Cc1csc(Nc2nc(=S)[nH]c3ccccc23)n1)NCc1cccc(Cl)c1	-0.9	6.8
CC(=O)Nc1nc(C=C(Cl)Cl)cs1	-9.1	30.1

# New compounds follow
structure	OX1R antag-1	OX1R antag-2
O=C(c1ccc(F)cc1)N1CCN(c2cc(N3CCCCC3)c(F)cc2[N+](=O)[O-])CC1	-20.2	1.3
Cc1ccc(OCCNC(=O)c2ccc(COc3ccccc3)o2)cc1	-24.8	18.7
O=C(CN1CCCCC1)N1N=C(c2cccs2)CC1c1cccs1 (stereo not given)	-25.0	8.9
Cc1snc(SCc2cccc(Cl)c2)c1C#N	-24.9	8.6
Cn1cc(/C=C(\NC(=O)c2ccccc2Cl)C(=O)NCCCN2CCOCC2)c2ccccc21	-17.0	9.8
COc1ccc(/C=C(\C#N)C(=O)Nc2cccc3ncccc23)cc1OC	-4.1	30.3
Cc1cc(NC(=O)C2C3C(=O)N(Cc4ccc(Cl)cc4)C(C(=O)NCc4ccccc4)C34C=CC2(C)O4)no1 (stereo not given)	-20.8	44.3
O=C(C1CCC(CNS(=O)(=O)c2ccccc2)CC1)N1CCOCC1 (stereo not given)	-23.3	0.4
Cc1ccccc1-c1nc(CS(=O)CC(=O)NCCN2CCN(Cc3ccccc3)CC2)c(C)o1 (stereo not given)	23.2	5.2
COc1cc(NC(=O)c2ccccc2Cl)c(OC)cc1NC(=O)CN1CCCCC1	-28.1	21.4

# (more compounds)
smiles,OX1R antag-1,OX1R antag-2
CS(=O)(=O)N1CCN(CCN2C(=O)c3cccc4cccc(c34)C2=O)CC1,-20.5,42.6
CCOC(=O)C1(Cc2cccc(OC)c2)CCCN(Cc2cnn(C)c2)C1 (stereo not given),-11.1,4.7
CC(C)=C1C2CCC1C(C(=O)NCc1ccccc1)C2C(=O)O (stereo not given),-8.8,19.1
CCOc1ccc(Nc2nc(Cc3nnc(SCC(=O)NCC4CCCO4)n3C)cs2)cc1 (stereo not given),-15.2,-5.5
Cn1c(=O)c2c(ncn2CC(=O)N2CCN(S(=O)(=O)c3ccccc3)CC2)n(C)c1=O,12.1,4.9
COc1ccccc1CC(NC(C)=O)C(=O)NC1CCN(C(=O)c2ccc(C)cc2)CC1 (stereo not given),-7.5,3.6
CCS(=O)(=O)c1ccc2oc(SCC(=O)Nc3ccc(OC)c(OC)c3)nc2c1,-9.9,3.5
C1=CC2c3ccccc3NC(c3ccncc3)C2C1 (stereo not given),-19.7,11.2
Cc1ccc(Sc2cc(N3CCOCC3)nc(-c3ccccc3)n2)cc1,-18.7,7.0
C=CCn1c(SCC(=O)c2c(N)n(C)c(=O)n(C)c2=O)nnc1-c1ccccc1F,-1.0,11.3
CCOC(=O)c1ccccc1N/C=C1\CCCCC1=O,-24.0,3.6
CC1CCCN(S(=O)(=O)c2ccc3c(c2)CCN3C(=O)C2CCC2)C1 (stereo not given),-6.9,30.7

# Further structures.
smiles,OX1R antag-1,OX1R antag-2
CCOc1ccc(CN2CCNC(=O)C2CC(=O)NCCC2=CCCCC2)cc1 (stereo not given),-33.4,6.3
OC1(c2ccccc2Cl)NN=C2CCCCCN21 (stereo not given),-21.4,9.7
Cc1cc(C)cc(NC(=O)Nc2cc(S(=O)(=O)N(C)C)ccc2C)c1,-36.7,9.5
Cc1ccccc1N1CN(Cc2ccco2)CNC1=S,8.1,3.5
COc1ccc(OC)c(N/C(N)=N/c2nc(C)cc(C)n2)c1,11.4,10.8
CC(C)NC(=O)c1ccccc1-c1nc(-c2ccccc2Cl)no1,-21.9,7.7
CCOC(=O)c1ccc(NC(=O)CSc2nc3c(c(=O)n2C)SC(C)C3)cc1 (stereo not given),-34.2,25.8
CCCCN(CC)CCNC(=O)c1cc2c(=O)n(C)c3ccccc3c2s1,-19.8,20.2
CC(C)(C)C(=O)Nc1nc2c(s1)COc1ccccc1-2,-57.1,3.0
COc1ccccc1C(=O)N/N=C(\C)CC(=O)Nc1ccc(Cl)cn1,-31.2,12.8
CCOC(=O)c1ccc(-c2cccc(C(F)(F)F)c2)nc1C,-11.1,2.8
COc1ccc(C(=O)NC2=C(C#N)CCC2)cc1OC,-4.2,16.2

# The results go on.
smiles,OX1R antag-1,OX1R antag-2
O=C(c1ccco1)N(CC1CCCO1)c1nc(-c2ccccc2)cs1 (stereo not given),-28.1,17.3
CN1CCCN(C(=O)c2ccccc2Cl)CC1,-11.7,-0.6
CS(=O)(=O)N1Cc2ccccc2CC1C(=O)Nc1ccccc1C(N)=O (stereo not given),-15.3,30.1
CC(=O)c1ccc(NC(=S)N2CCC(Cc3ccccc3)CC2)cc1,-15.9,3.7
CCC(CC)C(=O)Nc1nc(-c2ccc3c(c2)CCN3C(=O)C2CC2)c(C)s1,-27.0,13.6
CCOC(=O)CSC1=C(C#N)C(c2ccc(Cl)cc2)C(C(=O)OC)C(=O)N1 (stereo not given),-13.3,-1.0
CCSc1nc2c([nH]c3ccccc32)c(=O)n1C,-20.7,9.1
Cc1cc(/C=C(\C#N)C(=O)NC2CC2)c(C)[nH]1,0.0,13.9
COc1cc(C2CC(=O)c3cnc(NC(C)=O)nc3C2)cc(OC)c1OC (stereo not given),-17.9,3.9
CC1CCc2c(sc(NC(=O)CSc3nnc(-c4ccccc4)o3)c2C#N)C1 (stereo not given),-3.2,22.2
COC(=O)C1=C(C)OC(N)=C(C#N)C1c1ccc(OC)c(CSc2ccccn2)c1 (stereo not given),-18.8,26.4
CC(=O)c1cccc(NC(=O)c2ccccc2OCc2ccc(F)cc2)c1,-11.5,21.2

# Later entries:
smiles,OX1R antag-1,OX1R antag-2
Cc1ccc(C)c(OCC(=O)O/N=C(\N)c2ccccn2)c1,-18.7,16.2
COc1cc(-c2nn3c(COc4ccccc4)nnc3s2)cc(OC)c1OC,-14.3,10.4
COc1cc(CN2CCC(C(=O)N3CCN(c4ccccc4F)CC3)CC2)cc(OC)c1OC,-31.4,9.4
COc1ccc(CCNC(=O)CSc2n[nH]c(N)n2)cc1,2.5,19.1

# Only part of the results is shown; most or all hits stand in other tables.
